quorum sensing: Vibrio cholerae quorum sensing activators, luminescence (AID 686977). V. cholerae quorum sensing reporter, luminescence, 6 h; higher luminescence means a stronger effect; most inactives read 0. one-dose luminescence at 50 µM unless noted; EC50 in µM for titrated hits. 9,400 tested, under 10 active;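 active means light above mean plus 3 SD and confirmed in a dose series; inconclusive means above that limit without a clear retest; inactive means below it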;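 further: raw light counts without normalisation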
Starred values were filed as active, the others as inactive; ? = inconclusive; [ ] = dose if it differs, or a comment. The list is partial; count on the stated rates, not on these rows.

item | mol | quorum sensing
1 | CC(C)CCN=Cc1c(O)n(-c2ccccc2)c(=O)c2ccccc12 | 0
2 | C[C@@H]1C/C=C/C=C/C=C/C=C/[C@H](O[C@@H]2O[C@H](C)[C@@H](O)[C@H](N)[C@@H]2O)C[C@@H]2O[C@](O)(C[C@@H](O)C[C@H]3OC3/C=C/C(=O)O1)C[C@H](O)[C@H]2C(=O)O (stereo partly specified) | 0[10 µg/mL]
3 | Cc1ccc(S(=O)(=O)Nc2cc(NC(=O)CN3CCOCC3)ccc2Cl)cc1 | 0
4 | CC(=O)[C@@]1(O)CC[C@H]2[C@@H]3C[C@H](C)C4=CC(=O)C=C[C@]4(C)[C@@]3(F)[C@@H](O)C[C@@]21C | 40[10 µg/mL]
5 | Cc1nc(C)c(C(=O)N/N=C/c2c[nH]c3ccccc23)s1 | 0
6 | O=C(Nc1c(F)cc(F)cc1Br)c1ccco1 | 0
7 | COc1ccc(S(=O)(=O)N2CCC(C(=O)Nc3c(F)cccc3F)CC2)cc1 | 40
8 | CCc1cccc2c3c([nH]c12)C(CC)(CC(=O)O)OCC3 (stereo unspecified) | 0[10 µg/mL]
9 | Cc1noc(C)c1C(=O)N1CCCc2ccccc21 | 40
10 | COC(=O)C1=C(C)NC(=O)C1(NS(=O)(=O)c1ccc(C)cc1)C(F)(F)F (stereo unspecified) | ?
11 | Cc1cc(NC(=O)CSc2nc3ccccc3c(=O)n2-c2ccccc2)no1 | 0
12 | CCCn1c2c(c(O)c(C(=O)Nc3ncccc3O)c1=O)CCCC2 | 0
13 | Cc1cccc(C)c1NC(=O)CN1CCN(CCCC(c2ccc(F)cc2)c2ccc(F)cc2)CC1 | 0[10 µg/mL]
14 | Cc1csc(NC(=O)C2CCCN(S(=O)(=O)c3cccnc3)C2)n1 (stereo unspecified) | 40
15 | CC(C)Cn1c(CN(Cc2ccccc2)Cc2ccccc2)nc2c1c(=O)n(C)c(=O)n2C | 0
16 | Cc1cccc(-n2ncc3c(NC(C)C)ncnc32)c1 | 40
17 | CCOc1ccc2[nH]c(=O)c(CN(Cc3ccccc3)C(=O)N3CCCC3)cc2c1 | ?
18 | Cc1c(C)n(C(=O)CSc2nncn2C)c2ccccc12 | ?
19 | COc1ccc2cc(-c3csc(-c4cccnc4)n3)ccc2c1 | 200
20 | COc1ccc(CCCC(=O)NC2CCCCC2)cc1 | 80
21 | O=C(O)C1CC(=O)N(Cc2ccccc2)C1 (stereo unspecified) | 80
22 | Clc1ccccc1C1CC(c2ccccc2)Nc2ncnn21 (stereo unspecified) | 0
23 | CCOC(=O)c1c(-c2ccccc2)csc1NC(=O)c1ccc(S(=O)(=O)N2CC(C)OC(C)C2)cc1 (stereo unspecified) | 40
24 | O=C(NC1CCCCC1)C(c1ccc(F)cc1)N(Cc1ccco1)C(=O)Cn1nnc2ccccc21 (stereo unspecified) | 0
25 | CCN(CC)c1ccc(NC(=O)Cn2cc3c(n2)CCC(C)C3)c(C)c1 (stereo unspecified) | 0
26 | Cc1csc(NC(=O)CSc2nnc3c4ccccc4nc(C(C)(C)C)n23)n1 | ?
27 | O=C(O)c1ccccc1S(=O)CCO (stereo unspecified) | 40
28 | c1csc(-c2csc(-c3cccs3)n2)c1 | 0
29 | CC(C)(C)OC(=O)NC(CCNC=C1C(=O)OC(C)(C)OC1=O)C(=O)O (stereo unspecified) | 40
30 | C=C1[C@@H]2CC[C@H]3[C@]4(C)C[C@H](O[C@H]5O[C@H](CO)[C@@H](OS(=O)(=O)O)[C@H](OS(=O)(=O)O)[C@H]5OC(=O)CC(C)C)C[C@@H](C(=O)O)[C@H]4CC[C@]3(C2)[C@H]1O | 40[10 µg/mL]
31 | CC(C)c1cc(NC(=O)CSc2nnc(-c3ccccc3F)n2C)on1 | 0
32 | COc1ccc(-c2noc(CSc3nc4sc(C)c(C)c4c(=O)n3-c3ccccc3)n2)cc1OC | 0
33 | CC(C)[C@@]1(NC(=O)[C@@H]2C[C@@H]3c4cccc5[nH]cc(c45)C[C@H]3N(C)C2)O[C@@]2(O)[C@@H]3CCCN3C(=O)[C@H](Cc3ccccc3)N2C1=O | 40[10 µg/mL]
34 | CCCCC1CC(C)(C(=O)CSc2nc3ccccc3s2)OC1=O (stereo unspecified) | 40
35 | CCOc1ncccc1C(=O)OCC(=O)N1CC(=O)Nc2ccccc21 | 0
36 | CCOC(=O)c1cnc2c(C(=O)OC)cccc2c1NCc1ccco1 | 40
37 | O=C(O)c1cccc(N2C(=O)C3CC=C(Cl)CC3C2=O)c1 (stereo unspecified) | 0
38 | COc1ccc2c3c(c(=O)oc2c1OCC(=O)C(C)(C)C)CCCC3 | 0
39 | Cn1c(=O)cc(N2CCc3ccccc32)[nH]c1=O | ?
40 | COc1cc2c(cc1OC)-c1cc3ccc(OC)c(OC)c3c[n+]1CC2 | 40[10 µg/mL]
41 | CC(C)Cc1cc(C(=O)Nc2cccnc2)no1 | 40
42 | O=C(Nc1ccccc1Cl)c1cc(S(=O)(=O)N2CCOCC2)cs1 | 0
43 | COc1ccc(-c2nc(-c3ccc(NC(=O)c4ccncc4)cc3)no2)cc1OC | 0
44 | CCOC(=O)c1ccc(Nc2ncnc3nc[nH]c23)cc1 | ?
45 | CN(C)c1ccc(CNn2cnnc2SCc2ccccc2F)cc1 | 0
46 | COc1cc(C(=O)Nc2nc3ccc(S(=O)(=O)N4CCOCC4)cc3s2)cc(OC)c1OC | 40
47 | COc1cccc(-c2nnc(NC(=O)Cc3cccs3)s2)c1 | 0
48 | Cn1nnnc1SCC(=O)Nc1ccccc1Cl | 40
49 | CCN(CC)C(=O)c1cc2c(=O)n3ccccc3nc2s1 | 0
50 | CC(C)Oc1ccc(CNC(=O)Cn2c(=O)oc3ccccc32)cc1 | 0

Some of the entries above in a different format:
[46] COc1cc(C(=O)Nc2nc3ccc(S(=O)(=O)N4CCOCC4)cc3s2)cc(OC)c1OC
  quorum sensing: 40
[34] CCCCC1CC(C)(C(=O)CSc2nc3ccccc3s2)OC1=O (stereo unspecified)
  quorum sensing: 40
[45] CN(C)c1ccc(CNn2cnnc2SCc2ccccc2F)cc1
  quorum sensing: 0

A different layout for part of the listing above.
41. CC(C)Cc1cc(C(=O)Nc2cccnc2)no1
  quorum sensing = 40

42. O=C(Nc1ccccc1Cl)c1cc(S(=O)(=O)N2CCOCC2)cs1
  quorum sensing = 0

43. COc1ccc(-c2nc(-c3ccc(NC(=O)c4ccncc4)cc3)no2)cc1OC
  quorum sensing = 0

44. CCOC(=O)c1ccc(Nc2ncnc3nc[nH]c23)cc1
  quorum sensing = ?

Following part.
item | mol | quorum sensing
51 | O=C1CC(c2ccccc2)Cc2nc3nc(C(F)(F)F)nn3cc21 (stereo unspecified) | 40
52 | Cn1c(=O)oc2cc(S(=O)(=O)N3CCN(c4cccc(Cl)c4)CC3)ccc21 | 0
53 | CC(CCc1ccc(O)cc1)NCCc1ccc(O)c(O)c1 (stereo unspecified) | 0[10 µg/mL]
54 | Cc1csc(NC(=O)c2ccc(C)c(S(=O)(=O)N3CCCCC3)c2)n1 | 0
55 | Cc1cc2c(c(=O)n1Cc1cccnc1)C(c1ccccc1)C(C#N)=C(N)O2 (stereo unspecified) | 0
56 | NC(N)=NCCN1CCCCCCC1 | 40[10 µg/mL]
57 | CCN(CC)CCNC(=O)Cn1nc(Cc2cccnc2)c2ccccc2c1=O | 0
58 | CN1[C@@H](CC(=O)c2ccccc2)CCC[C@H]1C[C@H](O)c1ccccc1 | 0[10 µg/mL]
59 | CN1C(=O)CC(C(=O)Nc2ccc(F)cc2)SC1=Nc1ccc2c(c1)OCO2 (stereo unspecified) | 0
60 | N#CC(C#N)=c1ccc2c(c1)NC1(CCCCC1)N=2 | 0
61 | CC1S/C(=C(\C#N)C(=O)NCc2ccco2)N(Cc2ccco2)C1=O (stereo unspecified) | 40
62 | O=C(CSc1nc(-c2ccccc2)c(-c2ccccc2)[nH]1)NCc1ccco1 | 0
63 | O=C(c1cc2c(s1)CCC2)N1C(=O)c2ccccc2S1(=O)=O | 0
64 | O=C(O)CCNc1nc(-c2ccccc2)nc2ccccc12 | 40
65 | CC(SC1=NCCS1)C(=O)Nc1nnc(-c2ccc(Cl)cc2)s1 (stereo unspecified) | 0
66 | O=C(COC(=O)Cn1cnc2ccccc21)Nc1ccc2c(c1)OCCO2 | 40
67 | Nc1ncnc2c1ncn2[C@@H]1O[C@H](COP(=O)(O)O)[C@@H](O)[C@H]1O | 0[10 µg/mL]
68 | Cc1csc2ncc(C(=O)NCCc3ccccc3)c(=O)n12 | 0
69 | CCc1nc(SCC(=O)NCc2ccco2)c2c(=O)n(C)c(=O)n(C)c2n1 | 0
70 | FC(F)(F)c1ccc2c(c1)N(CCCN1CCN(CCCl)CC1)c1ccccc1S2 | 0
71 | Clc1ccc(-c2nnc(CSc3nnc(-c4cccs4)o3)o2)cc1 | 80
72 | C=CCN(C(=O)CNS(=O)(=O)c1ccccc1)C(C(=O)NCCOC)c1ccncc1 (stereo unspecified) | 0
73 | Cn1cc(Cl)c(C(=O)Nc2nc3ccccc3s2)n1 | 40
74 | CC1CCN(S(=O)(=O)c2ccc(NC(=O)Cc3ccccc3)cc2)CC1 | ?
75 | CCOC(=O)c1c(N)sn(-c2ccccc2)c1=S | 40
76 | O=C(O)CCC(=O)NCCn1c(-c2ccccc2)csc1=Nc1ccccc1 | 40
77 | C#CCn1c(=NC(=O)c2ccc(Br)s2)sc2cccc(OC)c21 | 80
78 | O=C(CCCn1c(=O)c2sccc2n(Cc2cc(=O)n3ccccc3n2)c1=O)NCc1ccco1 | 0
79 | Cn1cc(CC(=O)NCCCN2CCCC2=O)c2ccccc21 | ?
80 | Cc1ccc(CC(=O)N2CCC(c3nc4c(nnn4Cc4ccccc4)c(=O)[nH]3)CC2)cc1 | 0
81 | Cn1c(=O)c2c(SC3CCCC3)nc(C3CC3)nc2n(C)c1=O | 0
82 | COc1ccc(OC)c(-c2cc(C(=O)Nc3c(C)nn(Cc4ccccc4Cl)c3C)no2)c1 | 0
83 | CCCCCC1CCC(C(=O)O)CC1 (stereo unspecified) | 0
84 | Cc1oc(-c2ccccc2)nc1CS(=O)CC(=O)O (stereo unspecified) | 40
85 | Oc1cc(Cc2ccccc2)cnc1CN1CCCCC1 | 280
86 | Cc1cc(=S)[nH]c2ccccc12 | 0
87 | Cc1ccc(Cn2nnc3c(=O)n(CC(=O)c4ccccc4)cnc32)cc1 | ?
88 | O=C(CC1(O)C(=O)Nc2ccccc21)c1ccccc1 (stereo unspecified) | 0
89 | COC(=O)c1ccc2nc(NC(=O)CN3C(=O)CCC3=O)sc2c1 | 40
90 | CCn1c2ccccc2c2cc(NC(=O)CSc3nnc(-c4cccc(F)c4)o3)ccc21 | 0
91 | CN(C)S(=O)(=O)c1ccc2c(c1)nc1n2CCC1 | 0
92 | COCCn1c(N)c(C#N)c2nc3ccccc3nc21 | 0
93 | O=C(CN1C(=O)CCC1=O)Nc1nc(-c2ccccn2)cs1 | 40
94 | O=C1CC(Nc2ccc3ccccc3c2)C(=O)N1Cc1ccccc1 (stereo unspecified) | 0
95 | O=C(Nc1ccccc1C(=O)NC(Cc1c[nH]c2ccccc12)C(=O)O)c1ccco1 (stereo unspecified) | 0
96 | Cc1ccc(CNC(=O)Cc2ccc(-c3ccccc3)cc2)cc1 | 0
97 | COc1ccc(Cl)cc1NC(=O)CN1CCC(n2nnc3cc(C)ccc32)CC1 | 0
98 | COC(=O)C1CCN(C(=O)c2ccc(Cl)c(S(=O)(=O)NCc3cccnc3)c2)CC1 | 0
99 | Cc1ccc2c(CC(=O)N3CCN(S(=O)(=O)c4cccs4)CC3)coc2c1 | 0
100 | CC(=O)Nc1cccc(NS(=O)(=O)c2cccc3nsnc23)c1 | 0

Going on with the list.
item | mol | quorum sensing
101 | Cc1nnc(C)c2c(C)n(C(C)c3ccccc3)c(C)c12 (stereo unspecified) | 0
102 | CN(C)c1ccc(-c2ccccc2)nn1 | 0
103 | CCOC(=O)NCc1ccc(S(=O)(=O)Nc2c(C)cccc2C)cc1 | 0
104 | O=C1CCc2cc(S(=O)(=O)NC(Cc3ccccc3)C(=O)NC3CCCC3)ccc2N1 (stereo unspecified) | 40
105 | COc1cc(S(=O)(=O)NC2CCCC2)ccc1F | 0
106 | C[N+]1(CCCCC[N+]2(C)CCCC2)CCCC1 | 40[10 µg/mL]
107 | O=C(Nc1ccc(N2CCOCC2)c(Cl)c1)c1cc(F)c(F)cc1Cl | 0
108 | COC(=O)c1cc2ccsc2n1Cc1nc(-c2ccc(Cl)cc2)oc1C | 0
109 | CCOC(=O)c1c(C)sc2c1N(C(=O)CN(CC)CC)c1cc(Cl)ccc1S2 | 0
110 | CCN(CCCNC(=O)CN1C(=O)COc2ccccc21)c1cccc(C)c1 | 0
111 | C=CCNC(=O)NC(=O)COC(=O)COc1ccc(Br)cc1F | 0
112 | O=C(NNC(=O)C1CC1)c1ccc(-c2ccccc2)cc1 | 280
113 | NC(=O)C1(N2CCCCC2)CCN(C(=O)CCCn2c(=O)[nH]c3ccsc3c2=O)CC1 | 0
114 | CCOC(=O)c1cnc2cc(C)nn2c1C | 0
115 | Cc1nn(CCC#N)c(NC(=O)c2ccc(Cl)cc2)c1P(=O)(Nc1ccc([N+](=O)[O-])cc1)N1CCOCC1 (stereo unspecified) | 200
116 | CCCCCC(O)(CCCCC)C(=O)NNc1ccccc1 | 40
117 | Cc1sc2nc(SCC(=O)N3CCOCC3)[nH]c(=O)c2c1C | 0
118 | CCCC/C(O)=C1\C(=O)CC(C)(C)CC1=Nc1ccc(OC)cc1 | 0
119 | CCn1cc(S(=O)(=O)CC(=O)Nc2ccc3c(c2)OCCO3)c2ccccc21 | 0
120 | Cc1ccc(CN2C(=O)c3ccccc3C2C(=O)NCC2CCCO2)cc1 (stereo unspecified) | 0
121 | O=C(Cc1cccc2ccccc12)OCn1nnc2ccccc2c1=O | 0
122 | COc1ccc(C)c(S(=O)(=O)Nc2ccc(OCC(=O)O)cc2)c1 | 0
123 | Nn1c(SCc2ccccc2)nnc1-c1ccco1 | 0
124 | Fc1ccc(-c2ccc(-c3nn4c(-c5ccco5)nnc4s3)o2)cc1 | 280
125 | O=C1NCCCc2c1oc1ccc(O)cc21 | 0
126 | CCc1c(C#N)c(SCCC(=O)Nc2ccc(C)cc2)nc2c1C(=O)CC(C)(C)C2 | 0
127 | O=S(=O)(NCc1ccccc1)c1ccc2c(c1)OCCO2 | 0
128 | CCOc1cc(C)nc(NCCc2ccc(OC)c(OC)c2)n1 | 0
129 | CC1(C)Cc2c(ccc3ccccc23)C(NNC(=O)c2cccnc2)=N1 | 0

Bioassay records (PubChem)
